Methyltransferases – Primary Screen for Target Class Profiling of Small Molecule Inhibitors of Methyltransferases; calls only at 40 µM; purified enzyme, MTase-Glo SAH luminescence; hits give low values; 25,000 tested, 3.9% active; active = -50% or lower on at least one of six enzymes; inconclusive = the cases between; inactive = as a rule above -30% on all six;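 note: enzymes were COMT GAMT GNMT HNMT NNMT and PNMT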
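Each enzyme was reacted with SAM and its substrate, with compounds tested once at 40 uM; SAH formed was read by MTase-Glo luminescence.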
Calls only. % is set by controls: 0 for no effect and ±100 for the full control effect.

COc1cccc(C(=O)N2CC3(Cc4ccccc4CN3[S+](C)(=O)[O-])C2)c1 was read as Methyltransferases inactive.
For CNC(=O)c1cc(C)nc2onc(C3CCCN([S+](=O)([O-])c4ccc(C)cc4)C3)c12 (centres undefined) the results were Methyltransferases inactive.
CC(=O)OC1CC2C(C)(C)C(=O)C=CC2(C)C2CC(=O)C3=C(CCC3C3=CC(O)OC3=O)C12C (centres undefined) was read as Methyltransferases inactive.
Screening CCCn1c(=O)c2ccc(C(=O)NC(C)CC)cc2n2c(SCC(N)=O)nnc12 (centres undefined) returned Methyltransferases inactive.
CN1CCN(c2ncnc3c2CN(C2CCCCC2)C(=O)CN3C)CC1 was read as Methyltransferases inactive.
For Cc1ccc(NS(=O)(=O)c2cc3c(cc2N[C@@H](C)CO)NC(=O)CC3)cc1Cl the results were Methyltransferases inconclusive.
`Cc1ccc(Cn2c(=O)c3ccccc3n3c(=O)n(CC(=O)NC4CCCCC4)nc23)cc1` gave Methyltransferases inactive.
`COc1ccc(CN2C(=O)c3cc4ccc(OC)cc4n3CC2(C)C(=O)NCC2CCCO2)cc1` (centres undefined) gave Methyltransferases inactive.
Screening COc1ccc(-c2nc(-c3ccc(S(=O)(=O)N4CCC(C)CC4)cc3)no2)c(OC)c1 returned Methyltransferases inactive.
For CC(=O)Nc1c2n(c3ccc(F)cc13)CC(C)(C(=O)NCCC(C)C)N(Cc1cccs1)C2=O (centres undefined) the results were Methyltransferases inactive.
For CC(C)(C)C(=O)CN1C(=O)[C@H](NC(=O)Nc2cccc(C(=O)O)c2)CN(C2CCCCC2)c2ccccc21 the results were Methyltransferases inactive.
CCN(CC)S(=O)(=O)c1ccc(-c2nc(C)ccc2OC)cc1 was read as Methyltransferases inactive.
Screening COc1cc(O)c2c(c1)C1(OC2=O)C(C)=CC(=O)C1O (centres undefined) returned Methyltransferases inactive.
Cc1nc(C2CC23CCN(S(=O)(=O)c2cccc(F)c2)CC3)no1 (centres undefined) was read as Methyltransferases inactive.
For C=C1CCC2(C(=O)OC3OC(CO)C(O)C(O)C3O)CCC3(C)C(=CCC4C5(C)CCC(OC6OC(CO)C(OC7OC(C)C(O)C(O)C7O)C(OC7OCC(O)C(O)C7O)C6O)C(C)(C)C5CCC43C)C2C1 (centres undefined) the results were Methyltransferases inactive.
For Cc1nn2c(SCC(=O)Nc3ccc(C(C)C)cc3)nnc2[nH]c1=O the results were Methyltransferases inactive.
`COc1ccc(-c2oc3ccc(C)cc3c(=O)c2O)cc1OC` gave Methyltransferases active.
For O=C(N[C@@H]1CN(c2ccncn2)C[C@H]1CO)C1CCCC1 the results were Methyltransferases inactive.
Screening CCC(C)OC(=O)C(C)Oc1ccc2c(=O)c(-c3ccc(OC)c(OC)c3)c(C(F)(F)F)oc2c1 (centres undefined) returned Methyltransferases inactive.
CC1CCC2(C(=O)O)CCC3(C)C(=CCC4C5(C)CCC(O)C(C)(C(=O)O)C5CCC43C)C2C1(C)O (centres undefined) was read as Methyltransferases inactive.
Screening Cc1cc2c(cc3n2CC(C)(C(=O)NC2CCCCCCC2)N(CCCN2CCOCC2)C3=O)o1 (centres undefined) returned Methyltransferases inactive.
For CCC(C)NC(=O)c1ccc2c(=O)n(C)c3nn(CC(=O)Nc4ccc(C)cc4C)c(=O)n3c2c1 (centres undefined) the results were Methyltransferases inactive.
For CCn1cc(CN2CCN(C(=O)c3cccs3)CC2)ccc1=O the results were Methyltransferases active.
For c1ccc(CNc2nc(-c3ccccc3)no2)cc1 the results were Methyltransferases inactive.
Screening CC1CCC(NC(=O)C2(C)Cc3ccccc3C(=O)N2CCc2ccccc2)CC1 (centres undefined) returned Methyltransferases inactive.
`NS(=O)(=O)c1cc2c(cc1Cl)NC=NS2(=O)=O` gave Methyltransferases inactive.
Cc1nnc2n(-c3ccccc3)c(=O)c3ccc(C(=O)NCc4ccc5c(c4)OCO5)cc3n12 was read as Methyltransferases inactive.
CN(CCCNC(=O)Cn1ccc2cc(S(=O)(=O)N3CCCCC3)ccc21)Cc1ccccc1 was read as Methyltransferases inactive.
For C/C(=C\CO)CC/C=C(\C)C(=O)O[C@@H]1O[C@H](CO)[C@@H](O)[C@H](O)[C@H]1O the results were Methyltransferases inactive.
Screening CC1(C)CC[C@]2(C(=O)O)CC[C@]3(C)C(=CCC4[C@@]5(C)CCC(O[C@@H]6OC[C@H](O)[C@H](O)[C@H]6O[C@@H]6O[C@H](CO)[C@@H](O)[C@H](O)[C@H]6O)[C@@](C)(CO)C5CC[C@]43C)[C@@H]2C1 (some centres undefined) returned Methyltransferases inactive.
`COc1ccc(OC)c(CNC(=O)Cn2ccc3cc(S(=O)(=O)N4CCC(C)CC4)ccc32)c1` gave Methyltransferases inactive.
For Cc1noc(C)c1-c1cc2cc(CN(C)C)oc2c(N2CCOCC2)n1 the results were Methyltransferases inactive.
Cc1ccc(CNC(=O)C2(C)Cn3nc(C(=O)NCCc4ccccc4C)cc3C(=O)N2C)cc1 (centres undefined) was read as Methyltransferases inactive.
`Nc1nc(C2CC(NC(=O)c3[nH]nc(N)c3-c3ccccc3)C2)cc(=O)[nH]1` (centres undefined) gave Methyltransferases inactive.
For O=[S+]1([O-])NC2(CCCN(Cc3ccsc3)C2)CNc2ccccc21 (centres undefined) the results were Methyltransferases inconclusive.
CSc1ccc(CN2C(=O)c3ccc(-c4ccco4)n3CC2(C)C(=O)NC2CCCCC2)cc1 (centres undefined) was read as Methyltransferases inactive.
Screening COc1ccc(OC)c(CCNC(=O)CCc2nnc3n(Cc4ccc(F)cc4)c(=O)c4ccccc4n23)c1 returned Methyltransferases inactive.
Screening NC(=O)CNC(=O)C1=C[C@@H](NC(=O)Cc2cccs2)[C@@H](O)[C@H](O)C1 returned Methyltransferases inactive.
Screening Cc1ccccc1NC(=O)Cn1c(=O)oc2cc(S(=O)(=O)N3CC(C)CC(C)C3)ccc21 (centres undefined) returned Methyltransferases inactive.
COc1cccc(-c2ccc(CN3CCCC3C(=O)N3CCN(c4ncccn4)CC3)cc2)c1 (centres undefined) was read as Methyltransferases inactive.
CCC(C)NC(=O)c1ccc2c(=O)n(C(C)C)c3nn(CC(=O)c4ccc(C)cc4C)c(=O)n3c2c1 (centres undefined) was read as Methyltransferases inactive.
`CNC(=O)[C@@H]1CN(C(=O)c2ccoc2C)C[C@H]1c1nc(C)no1` gave Methyltransferases inactive.
C=C1CCC2[C@](C)(CCC[C@@]2(C)C=O)[C@H]1CC/C(C)=C/CO (some centres undefined) was read as Methyltransferases inactive.
`COCCN1C(=O)c2cc3sccc3n2CC1(C)C(=O)NC1CCCCC1` (centres undefined) gave Methyltransferases inactive.
Cc1ccc(Cn2c(=O)c3ccccc3n3c(=O)n(CC(=O)NCc4ccccc4Cl)nc23)cc1 was read as Methyltransferases inactive.
c1ccc(CCCN2CC[C@H](c3nc4ccccc4s3)C2)cc1 was read as Methyltransferases inactive.
For OC/C=C/c1ccc(O[C@@H]2O[C@H](CO)[C@@H](O)[C@H](O)[C@H]2O)cc1 the results were Methyltransferases inactive.
For CCCC1c2cccn2CCN1C(=O)NCCOC (centres undefined) the results were Methyltransferases inactive.

6 records drawn at random from those above, as already listed:
Screening COc1ccc(-c2nc(-c3ccc(S(=O)(=O)N4CCC(C)CC4)cc3)no2)c(OC)c1 returned Methyltransferases inactive.
For Cc1ccc(NS(=O)(=O)c2cc3c(cc2N[C@@H](C)CO)NC(=O)CC3)cc1Cl the results were Methyltransferases inconclusive.
Screening COc1ccc(OC)c(CCNC(=O)CCc2nnc3n(Cc4ccc(F)cc4)c(=O)c4ccccc4n23)c1 returned Methyltransferases inactive.
For c1ccc(CNc2nc(-c3ccccc3)no2)cc1 the results were Methyltransferases inactive.
For CC(C)(C)C(=O)CN1C(=O)[C@H](NC(=O)Nc2cccc(C(=O)O)c2)CN(C2CCCCC2)c2ccccc21 the results were Methyltransferases inactive.
For CCCC1c2cccn2CCN1C(=O)NCCOC (centres undefined) the results were Methyltransferases inactive.

(next part)
For COc1ccccc1CNC(=O)CCc1nnc2n(CC(C)C)c(=O)c3ccccc3n12 the results were Methyltransferases inactive.
Screening O=C(c1cc(O)c(O)c([N+](=O)[O-])c1)c1ccccc1F returned Methyltransferases active.
For O=C(CCc1nnc2n(Cc3ccc(Cl)cc3)c(=O)c3ccccc3n12)N1CCc2ccccc2C1 the results were Methyltransferases inactive.
`O=C(NC1CCCC1)N1CCCC(Cn2cnc3cccnc32)C1` (centres undefined) gave Methyltransferases inactive.
CCOCCn1nc(C)cc1C(=O)N[C@H]1[C@H]2CCO[C@H]2[C@@H]1N(C)C was read as Methyltransferases inactive.
For Cc1nccn1CC1CCc2c(c3ccccc3n2C)C1=O (centres undefined) the results were Methyltransferases inactive.
Screening COc1ccc(NC(=O)CSc2nnc3n(CC(C)C)c(=O)c4ccccc4n23)cc1OC returned Methyltransferases inactive.
Screening CC1CCC(NS(=O)(=O)c2ccc3c(c2)n(C)c(=O)n3C)CC1 (centres undefined) returned Methyltransferases inactive.
Screening CCc1ccccc1N1C(=O)c2cc3ccccc3n2CC1(C)C(=O)NCc1ccccc1OC (centres undefined) returned Methyltransferases inactive.
COc1ccc(C(=O)N[C@@H]2CCOC[C@H]2Oc2ccccn2)c(F)c1F was read as Methyltransferases inactive.
`CC(C)n1c(=O)c2ccc(C(=O)NC3CCCC3)cc2n2c(=O)n(CC(=O)c3cccc(Cl)c3)nc12` gave Methyltransferases inactive.
For Nc1nc(N)c2nc(-c3cccc(O)c3)cnc2n1 the results were Methyltransferases inconclusive.
For COCc1nnc2n1CCC(NC(=O)Cc1c[nH]c3ccccc13)CC2 (centres undefined) the results were Methyltransferases inactive.
Nc1[nH]nc2nnc(-c3c(-c4ccccc4)nn4ccccc34)cc12 was read as Methyltransferases active.
Screening Cc1nn(C)c(C)c1S(=O)(=O)N1CCC2(CCC(=O)N(Cc3ccccc3)CC2)CC1 returned Methyltransferases inactive.
`CC(C)(C)n1cnc2cccnc21` gave Methyltransferases inactive.
Screening c1ccc(CNc2ncc(-c3ccc(N4CCOCC4)cc3)c3c2OCC3)cc1 returned Methyltransferases inconclusive.
Screening CC1=C(CCC(C)O[C@@H]2O[C@H](CO)[C@@H](O)[C@H](O)[C@H]2O)C(C)(C)CCC1=O (some centres undefined) returned Methyltransferases active.
Screening CCc1ccccc1N1C(=O)c2cc(C(C)(C)C)nn2CC1(C)C(=O)NCCC(C)C (centres undefined) returned Methyltransferases inactive.
Screening Cc1cc2[nH]c(=O)[nH]c2cc1S(=O)(=O)NCc1ccccc1 returned Methyltransferases inactive.
For COc1cccc(C(=O)N2CCC3(CC2)CCN(CCc2ccccc2)c2ccccc2O3)c1 the results were Methyltransferases inactive.
`CC1(C(=O)NC2CCCCCCC2)Cn2c(ccc2-c2ccco2)C(=O)N1CCN1CCOCC1` (centres undefined) gave Methyltransferases inactive.
For COC(=O)COc1ccc2c(-c3ccccc3)cc(=O)oc2c1C the results were Methyltransferases inactive.
O=C(/C=C/n1cnc(-c2cc(C(F)(F)F)cc(C(F)(F)F)c2)n1)NNc1cnccn1 was read as Methyltransferases inactive.
For Cc1ccc(Cn2c(=O)c3ccc(C(=O)NCC(C)C)cc3n3c(=O)[nH]nc23)cc1 the results were Methyltransferases inactive.
Screening O=C(c1ccc(C(F)(F)F)cc1)N1CCCC(C(=O)N2CCC(N3CCOC3=O)CC2)C1 (centres undefined) returned Methyltransferases inactive.
COCCN1CCC(CN(Cc2ccncc2)C(=O)C2CC23CCCC3)CC1 (centres undefined) was read as Methyltransferases inactive.
`CCC(C)NC(=O)c1ccc2c(=O)n(CC(C)C)c3nn(Cc4ccc(Cl)cc4)c(=O)n3c2c1` (centres undefined) gave Methyltransferases inactive.
For COc1ccc(CN2C(=O)c3ccc(-c4ccco4)n3CC2(C)C(=O)NCc2ccc(Cl)cc2)c(OC)c1 (centres undefined) the results were Methyltransferases inactive.
Screening O=C1CO[C@H]2CCN(Cc3ccccn3)CC[C@@H]2N1c1ccccc1 returned Methyltransferases inactive.
CC(C)(C)NC(=O)[C@@H](c1cccnc1)N(C(=O)c1ccco1)c1ccc(C(C)(C)C)cc1 was read as Methyltransferases inactive.
`CC(C)NC(=O)c1ccc2c(=O)n(C(C)C)c3nn(Cc4ccc(F)cc4)c(=O)n3c2c1` gave Methyltransferases inactive.
`CN(Cc1ccccc1)Cc1nc(C2CCOC2)no1` (centres undefined) gave Methyltransferases inactive.
Screening CN1CCN(C)c2cnc(-c3cnn(Cc4ccccc4)c3)cc2C1 returned Methyltransferases active.
O=C(c1cccs1)N1CCCN(c2cc(-c3ccc(F)cc3)[nH]n2)CC1 was read as Methyltransferases inactive.

3 structures out of the list, arranged by molecular weight, lowest first.
For CCCC1c2cccn2CCN1C(=O)NCCOC (centres undefined) the results were Methyltransferases inactive.
`CNC(=O)[C@@H]1CN(C(=O)c2ccoc2C)C[C@H]1c1nc(C)no1` gave Methyltransferases inactive.
Screening CC1CCC(NC(=O)C2(C)Cc3ccccc3C(=O)N2CCc2ccccc2)CC1 (centres undefined) returned Methyltransferases inactive.

This is a subset; rates above refer to the full screens.
